From PubChem BioAssay
gsp antagonist = antagonists of gsp mutant (McCune-Albright syndrome); actives 0.4% (n = 340,000); Potency, µM (highest dose often 76.9 µM), without a hit: top-dose activity change, negative = inhibition, most hits filed as inhibitors; gsp-mutant cells, cAMP HTRF, 30 min; control for the full effect not named in the record; active = falling curve of any shape with a large fitted effect; inconclusive = falling curve, mostly with a smaller effect; inactive = flat or rising curve; cell line not stated here;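 further: intracellular cAMP measured with PDE inhibitor Ro 20-1724 present during compound exposure; potency means the concentration at half of the fitted maximal effect; on the % scale 0 is the no-effect control and ±100 the full control effect; nearly all actives have a fitted effect of over 65% in size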
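G418-selected cells were plated in DMEM/10% FBS for 16-24 h at 37C, then treated with compounds plus the PDE inhibitor […] (300 uM solution added) for 30 min at 37C. Intracellular cAMP was measured by HTRF after 30 min lysis at room temperature.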
gsp ag = activates gsp, the McCune-Albright syndrome mutation | actives 0.13% (n = 340,000) | gsp mutant cells, cAMP HTRF, 30 min; control for the full effect not named in the record | Potency, µM (titrated, usually from 76.9 µM), for the others: at the top dose activation (cAMP increase), most hits filed as activators; active = well fitted activation curve with a large enough effect; inconclusive = small, poorly fitted or top-dose-only effect, or another doubt; inactive = no such curve, though single readings can be large or run the other way; cell line not stated here;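 further: phosphodiesterase inhibitor Ro 20-1724 added with compounds to block cAMP breakdown; potency means the concentration at half of the fitted maximal effect; nearly all actives have a fitted effect of over 60% in size; about a fifth of the inactives were tested at one dose only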
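Cells stably selected in G418 were plated at 2000/well, grown 16-24 hr, then given compounds in DMSO with the PDE inhibitor […] (300 uM solution added) for 30 min at 37C; cAMP was read by HTRF.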
Menin MLL FP FL = inhibitors of human menin-MLL interaction, wild-type MLL peptide. Fluorescence polarization, fluorescein-MLL peptide displacement from menin. 290,000 tested, under 10 active. FP activity change, % at 61.4 µM; inconclusive = falling polarisation curve, or a change in total fluorescence; inactive = total fluorescence flat and polarisation flat or rising; no compound was filed as active; the % refers to the polarisation; negative = inhibition;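 further: % of control where 0% means no effect; inhibitors lower the polarisation; unlabelled MLL peptide was the positive control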
ClpP mod = qHTS Assay for Activators of ClpP; ATP-dependent Clp protease proteolytic subunit (Bacillus subtilis (strain 168)), P80244; purified B. subtilis ClpP, FRET peptide cleavage, 20 min; Potency, µM (titrated, usually from 57.5 µM), without a hit: at the top dose activity change, negative = active; actives 1.9% (n = 340,000); AID 651965, 2013; active = well fitted falling curve with a large enough effect; inconclusive = small, poorly fitted or top-dose-only effect; inactive = no such curve, though single readings can be large or run the other way; further: potency means the concentration at half of the fitted maximal effect; the source files actives as falling curves though it sought activators and does not explain the sign; nearly all actives have a fitted effect of over 65% in size; many hits overshoot -100%
Target sequence (P80244 whole entry, looked up): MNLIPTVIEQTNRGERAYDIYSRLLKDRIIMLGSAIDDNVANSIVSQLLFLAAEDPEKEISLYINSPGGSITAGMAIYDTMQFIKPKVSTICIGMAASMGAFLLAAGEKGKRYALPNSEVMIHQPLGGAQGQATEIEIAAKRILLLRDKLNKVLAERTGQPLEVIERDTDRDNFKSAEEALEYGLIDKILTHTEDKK
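Buffer: 100 mM Tris/HCl pH8, 100 mM KCl, 0.05% low protease BSA, 2.5% glycerol, 0.01% Tween-20. ClpP 10 microg/mL final; 20 min RT; delta FRET normalized to ADEP and DMSO controls.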
Sfp PPTase inh = Sfp phosphopantetheinyl transferase inhibition; Potency, µM, without a hit: max response, negative = inhibition, actives largely listed as inhibitors; actives 3.5% (n = 310,000); Biochemical Sfp PPTase activity, qHTS; AID 1490; Q9F4F7; active means well fitted inhibition curve with a large enough effect; inconclusive means small, poorly fitted or top-dose-only effect, or another doubt; inactive means no such curve, though single readings can be large or run the other way;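 further: the enzyme is Sfp with the accession as filed and its product quenches rhodamine fluorescence; potency means the concentration at half of the fitted maximal effect; 0% = enzyme reaction without inhibitor and -100% = no enzyme wells; top concentration of the series not given in the record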
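After 15 min at room temperature with compound, 15 nM Sfp received 5 uM rhodamine-CoA plus 12.5 uM BHQ-2-ybbR (50 mM Hepes pH 7.6, 10 mM MgCl2). Rate came from the fluorescence difference over 30 min, ex 525/em 598 nm.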
CtBP-E1A inh = inhibitors of CtBP/E1A interaction; AlphaScreen GST-E1A/His-CtBP binding, 1536-well; hits give low values; control for the full effect not named in the record; activity change, % (no concentration beside the values); actives 0.49% (n = 340,000); in the data active means activity change below about -65%; inconclusive means about -30% to -65%; inactive means above about -30%; further: on the % scale 0 is the no-effect control and ±100 the full control effect; compound concentration not given in the record
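Protein mix (5X: 125 nM each GST-E1A, His-CtBP) was incubated with pinned compound 2 h at 37 deg C in dark, in 50 mM Tris pH 8.0 buffer with 300 mM NaCl. Glutathione donor and nickel acceptor beads followed; AlphaScreen signal read after 1 h.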
TRPV1 PAM = potentiators of human vanilloid receptor 1 (TRPV1); TRPV1-expressing cells, Fluo-8 calcium influx, capsaicin EC20 potentiation; host cell line not named in the record; control for the full effect not named in the record; potentiation, % at 8.33 µM; Q8NER1; actives 0.02% (n = 320,000); active means potentiation above 80%; inconclusive means 30% to 80%; inactive means below 30%; further: 0% is about no effect
Target sequence (Q8NER1 whole entry, looked up): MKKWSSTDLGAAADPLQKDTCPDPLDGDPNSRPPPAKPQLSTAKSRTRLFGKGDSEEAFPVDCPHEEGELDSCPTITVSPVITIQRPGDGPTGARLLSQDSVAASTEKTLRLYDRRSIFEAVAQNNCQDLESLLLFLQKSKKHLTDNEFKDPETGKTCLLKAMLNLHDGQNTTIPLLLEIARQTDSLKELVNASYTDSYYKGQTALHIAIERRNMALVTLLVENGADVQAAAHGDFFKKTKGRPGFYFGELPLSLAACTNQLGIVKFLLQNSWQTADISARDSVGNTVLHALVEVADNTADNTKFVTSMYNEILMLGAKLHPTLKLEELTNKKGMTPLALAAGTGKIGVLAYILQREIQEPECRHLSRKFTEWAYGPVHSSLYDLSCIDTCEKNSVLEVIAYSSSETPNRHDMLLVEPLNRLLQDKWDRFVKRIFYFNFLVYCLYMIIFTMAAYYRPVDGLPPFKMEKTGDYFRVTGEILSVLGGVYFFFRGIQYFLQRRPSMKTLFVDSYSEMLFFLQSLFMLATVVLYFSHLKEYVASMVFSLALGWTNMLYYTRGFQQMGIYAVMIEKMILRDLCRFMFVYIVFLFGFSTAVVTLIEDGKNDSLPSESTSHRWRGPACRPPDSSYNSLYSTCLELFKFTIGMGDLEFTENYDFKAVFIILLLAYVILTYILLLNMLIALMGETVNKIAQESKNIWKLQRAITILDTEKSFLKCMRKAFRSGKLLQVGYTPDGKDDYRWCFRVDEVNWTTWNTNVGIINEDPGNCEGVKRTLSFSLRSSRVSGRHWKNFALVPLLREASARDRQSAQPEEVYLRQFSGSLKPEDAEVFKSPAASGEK
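TRPV1-expressing cells were cultured overnight at 35.5C and loaded with Fluo-8 calcium dye for 40 to 90 min at room temperature. After a 10 s baseline, compound was added and calcium influx was read kinetically for 3 min (ex 480/em 520 nm).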
* marks the source's active call; other numbers are inactive results; ? = inconclusive; · = no result given; & = joins results of further samples; [ ] = remark or other dose.

SMILES | gsp antagonist | gsp ag | Menin MLL FP FL | ClpP mod | Sfp PPTase inh | CtBP-E1A inh | TRPV1 PAM
Cc1cccc(N2CCN(C(=O)c3ccc4c(c3)NC(=O)C(CSCc3cccc(F)c3)N4)CC2C)c1 (stereo not given) | -5% | ? | · | -3.1% | 56µM* | 1 | -2
O=C(COc1ccc(Br)cc1)N1CCNC1=O | 10% | -11% | · | -0.2% | 6% | · | -22
Cc1ccc(C)c(NC(=S)NC2CC3CCC(C2)N3Cc2ccco2)c1 (stereo not given) | 5% | -2% | -2.0 | -2.3% | 7% | 1 | 6
CC(C)(C)[C@H]1C=C(C(=O)NCc2ccccc2)O[C@@H](OCCCCO)C1 | -3% | 14% | · | 2.9% | · | 3 | ·
COc1ccc(S(=O)(=O)N2CCOCC2)cc1NC(=O)CSc1nnc(NC2CC2)s1 | 8% | -4%[15.4 µM] | · | 0.9% | · | 8 | ·
COc1ccc(/C=C/C(=O)Nc2cccc(C(C)=O)c2)cc1 | ? | 19%[15.4 µM] | 6.3 | ? | -10% | 3 | -22
O=C(NC1CCCC1)c1ccc(Cl)c(S(=O)(=O)N2CCCCC2)c1 | -1% | 3%[15.4 µM] | 1.3 | · | 10% | -1 | -18
CCN(CC)c1ccc(NC(=O)COC(=O)c2ccc3ccccc3n2)cc1 | -45% | -27% | 2.1 | 1.9% | ? | -14 | 5
c1cncc(Nc2nc(-c3ccncc3)cs2)c1 | 1% | 20% | 0.0 | -0.4% | 11% | -15 | 5
CC1C=CCC2C(=O)N(c3cccc(C(=O)NCc4ccccc4)c3)C(=O)C12 (stereo not given) | -15% | 14% | 3.8 | 0.6% | -27% | 0 | -7
Cc1ccc(CNC(=O)CCS(=O)(=O)c2cc3c(cc2C)NC(=O)CO3)cc1 | 3% | -71% | -0.3 | 2.5%&1.4% | 21% | -2 | -28
O=C1c2ccccc2C2(c3ccccc3)NCCN12 (stereo not given) | 3% | -37%[inhibitor] | -3.6 | -0.7% | 9% | 1 | 7
O=C(O)c1cccc(N/N=C/c2ccc(-c3ccccc3)cc2)c1 | -10% | -7% | -1.0 | -8.6% | -10% | -6 | ?
O=C(c1cnn(C(=O)COc2ccc(Cl)cc2)c1)c1ccccc1O | 8% | 1% | -0.2 | 37% | 14% | 8 | -17
CCn1c(SCC(=O)NNC(=S)Nc2ccc(C)cc2)nnc1-c1ccc(Cl)cc1 | -14% | -3% | 2.8 | 1.0% | 9% | 0 | 4
COC(=O)c1ccccc1NC(=O)CSc1nc(N)cc(=O)[nH]1 | · | -31%[15.4 µM] | -1.3 | · | 6% | 0 | -8
Cc1cccc(CN(C)CCc2ccccn2)c1 | 10% | -40%[inhibitor] | 4.5 | -0.6% | -20% | 4 | 8
CS(=O)(=O)N1CCC(C(=O)Nc2ccccc2F)CC1 | -6% | -10% | 0.4 | -0.1% | 13% | 20 | 14
COC(=O)C(=Cc1ccncc1)c1cccc2ccccc12 | · | 4% | · | -1.9% | · | -6 | ·
CC(C)(C)N1C(=O)[C@H]2[C@@H](c3ccc(Br)cc3)N3C(=O)N(c4cccc(F)c4)C(=O)[C@@]3(Cc3ccccc3)[C@H]2C1=O | -13% | 21% | · | -0.6% | · | 0 | -11
O=C(Nc1nc(-c2cc(F)ccc2F)cs1)c1cccc(N2C(=O)CCC2=O)c1 | 40µM* | -6% | · | -3.1% | · | -1 | -4
COc1ccc(CN2C(=O)c3cccnc3C2=O)cc1S(=O)(=O)N1CCCCC1 | 34% | 13µM* | · | 0.5% | 10% | · | ?
CCc1ccc(C(C)NC(=O)Cn2cnc3c(=O)n(C)c(=O)n(C)c32)cc1 (stereo not given) | -2% | 7% | 1.2 | -3.1% | 2% | -7 | 1
CC(=O)N1N=C(c2c(-c3ccccc3)c3cc(C)ccc3[nH]c2=O)CC1c1ccco1 (stereo not given) | ? | 0% | 3.5 | -27% | ? | -14 | 5
CCCC(=O)Nc1ccc(Cl)c(NC(=O)c2cccnc2Cl)c1 | -7% | 16% | 0.3 | 0.5% | -3% | -1 | 12
O=C(O)CCC(=O)Nc1ccc(N=Nc2ccccc2)cc1 | 3% | 17%[15.4 µM] | -5.2 | · | 14% | 4 | 10
Cc1onc(-c2ccccc2)c1C(=O)N/N=C/c1ccc(O)c([N+](=O)[O-])c1 | -12% | 20%[15.4 µM] | · | -1.4% | 18% | 2 | 20
COC(=O)c1sc(N)c(C(=O)OC)c1COC(=O)CNS(=O)(=O)c1ccc(C)c(C)c1 | -23% | -17% | 6.9 | -4.2% | 1% | 7 | -7
CSc1ncnc2c1ncn2CCCN(C)CCc1ccccn1 | · | ? | · | 0.1% | · | 1 | ·
CCN(CC(=O)NCc1cccs1)C(=O)c1cccc(S(=O)(=O)NC)c1 | 6% | -13% | · | 0.0% | · | 9 | 12
CCn1ccnc1CNC(=O)CC1C(=O)NCCN1Cc1ccccc1F (stereo not given) | 12% | ? | -5.0 | · | 2% | -25 | 1
Cc1ccc(O)c(NC(=O)C2CC(c3cccc(Br)c3)=NO2)c1 (stereo not given) | -5% | 16% | -3.0 | · | 19% | 0 | -5
COCCC(=O)N1CCC(Oc2ccc(C(=O)NCc3ccon3)cc2)CC1 | 9% | 12% | -2.3 | -1.5% | -3% | -3 | 8
COc1ccc(-c2nc(-c3ccncc3)no2)c(OC)c1 | -10% | 3% | 3.2 | -1.8% | 0% | · | 2
O=C(CC(=O)c1ccccc1)Nc1cccnc1 | -2% | -7% | 0.3 | · | 5% | 10 | -5
O=C(OCc1nc2ccc(Cl)cc2n1CCO)c1ccccc1 | 8% | -4% | 3.4 | -0.7% | -6% | 13 | -1
Cc1cccc(OCCN2C(=O)c3ccccc3C2=O)c1 | -8% | 13% | -0.3 | -0.4% | -4% | 15 | -20
Cc1cccc(C)c1C(=NCCN(C)C)c1ccccc1 | -6% | 23%[15.4 µM] | · | · | · | -16 | ·
CC(C)N(Cc1nnc(-c2ccccc2Cl)o1)C(=O)COc1cccc(Cl)c1 | · | 0% | · | 1.3% | · | 0 | ·
CC(C)c1ccccc1NC(=O)CN1C(=O)c2ccccc2C1=O | 7% | -10% | -0.5 | · | 3% | 3 | -14
O=C(CCCc1nc2ccccc2s1)NNC(=O)CCN1CCN(Cc2ccccc2)CC1 | -5% | 2%[15.4 µM] | -0.4 | · | 15% | -5 | 1
COc1cc(CNC(=O)C2CC2)ccc1OCc1ccccc1 | -1% | 7%[15.4 µM] | -1.2 | · | 10% | 1 | 2
O=C(CN1C(=O)NC2(CCCc3ccccc32)C1=O)NCc1ccco1 (stereo not given) | 14% | ? | 4.1 | -0.3% | 10% | 3 | 4
O=C(NCc1ccccc1)c1ccc(CSc2ccccc2)o1 | 5% | 6% | -1.2 | -3.3% | 12% | 8 | -9
CCCn1c(C)cc(/C=C(\C#N)C(=O)OCC(=O)Nc2cc(OC)c(OC)c(OC)c2)c1C | 18% | -2% | 2.4 | -1.5% | 4% | 6 | -19
CC1CCC(NC(=O)CCNS(=O)(=O)c2ccccc2)CC1 (stereo not given) | 9% | 14% | · | -1.8% | 15% | 3 | 13
O=C(CN1C(=O)c2cccc3cccc1c23)Nc1ccccc1 | 10% | -1%[15.4 µM] | 1.6 | · | 6% | 18 | 5
Nc1nc(SCC(=O)O)[nH]c(=O)c1NC(=O)c1ccco1 | -13% | ? | -3.8 | 0.2% | -18% | 4 | 9
COC(=O)C(CCSC)NC(=O)C12CC3CC(CC(C3)C1)C2 (stereo not given) | 12% | ? | 0.7 | 0.1% | 5% | 2 | 2
Cc1cc(C)c(S(=O)(=O)c2cc(F)ccc2C)c(Cl)n1 | -2% | -7%[15.4 µM] | 4.1 | · | 22% | -5 | 2
CC[C@@H]1C(c2cccc(C)c2)=NN(c2ccccc2)[C@H]1C(=O)N1CCOC1=O | -28% | · | ? | -9.9% | 17% | 23 | ·
COc1cccc(CNS(=O)(=O)c2cc3c(cc2C)NC(=O)CO3)c1 | 9% | 4% | -4.1 | 0.2% | 8% | 2 | 12
NC(=S)NC1CC2CC1C1C=CCC21 (stereo not given) | -4% | -3%[15.4 µM] | 1.4 | 0.8% | 6% | 4 | 2
O=C(COc1ccccc1)NCc1nnc(SCC(=O)Nc2nccs2)n1-c1ccccc1 | 5% | -16% | 4.3 | -0.4% | 3% | 2 | -13
O=C(Cn1cnc2ccccc2c1=O)Nc1ccc(S(=O)(=O)N2CCOCC2)cc1 | -11% | -31%[inhibitor] | -0.6 | · | 3% | 9 | 7
CCN1/C(=C2\C(=O)N(C)C(=S)N2C)C=Cc2ccccc21 | ? | -11%[15.4 µM] | 5.5 | · | -6% | -23 | -1
CCOC(=O)C1CCN(c2c(Nc3ccc(C)c(C)c3)c(=O)c2=O)CC1 | ? | -24% | -1.7 | -0.4% | 2% | -1 | -17
COc1ccccc1CNC(=S)NCCc1ccccc1 | 1% | 2%[15.4 µM] | -2.5 | · | -12% | -2 | -26
CC(=O)Oc1ccccc1-n1c(C)nc(=O)c(-c2ccccc2)c1C | 3% | -8%[15.4 µM] | -1.3 | · | 3% | 0 | 5
Clc1ccc(C(c2ccccc2Cl)C(Cl)Cl)cc1 (stereo not given) | -15% | · | 2.8&2.7&1.3 | -2.4% | 6%&-15% | -8 | -6
NC(=O)CSc1nc2ccccc2n1-c1ccccc1 | -8% | -28% | -7.9 | 1.7% | -17% | 6 | -9
CCOC(=O)C1C(=O)C=C(c2ccc(Br)cc2)CC1c1ccco1 (stereo not given) | -20% | 6% | 4.5 | -2.7% | -7% | -2 | -12

Single records (already shown). Order of values: gsp antagonist, gsp ag, Menin MLL FP FL, ClpP mod, Sfp PPTase inh, CtBP-E1A inh, TRPV1 PAM
O=C(Cn1cnc2ccccc2c1=O)Nc1ccc(S(=O)(=O)N2CCOCC2)cc1 as listed: -11%, -31%[inhibitor], -0.6, ·, 3%, 9, 7
CC(=O)Oc1ccccc1-n1c(C)nc(=O)c(-c2ccccc2)c1C as listed: 3%, -8%[15.4 µM], -1.3, ·, 3%, 0, 5

No enrichment for hits; any-hit rate near 5.3%.
